# Rango release inh = inhibitors of RanGTP-induced Rango-importin beta complex dissociation; O95149+P62826; Biochemical FRET Rango-importin beta, RanGTP-induced dissociation; Potency, µM (doses to about 46.1 µM), for the others: top-dose activity change, negative = inhibition; 340,000 tested, 0.071% active; active means falling FRET ratio curve, often poorly fitted, with flat reads before Ran was added; inconclusive means other falling curves, or compound fluorescence or quenching; inactive means flat or rising ratio curve;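 further: potency means the concentration at half of the fitted maximal effect; % of control where 0% means no effect; nearly all actives have a fitted effect of over 45% in size; -100% = wells without RanGTP and RCC1; the record marks most hits as doubtful in a second field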
#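 Rango/importin beta premix (0.1/0.25 uM final), PBS + 1 mM DTT + 0.02% Tween-20 + 0.1% BSA; cpd 5 min RT; FRET pre-read; + RanGTP-RCC1 (0.6 uM Ran, 2 mM GTP, 0.2 uM RCC1); 45 min RT; FRET post-read, ex 430, em 486/530 nm.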
# GLA inh pH 4.5 = alpha-galactosidase A (human) inhibition, pH 4.5. P06280. purified enzyme, 4-MU-alpha-Gal fluorescence, pH 4.5. activity change, negative = inhibition, % at 105 µM. 230,000 tested, under 10 active; inconclusive = small, poorly fitted or top-dose-only inhibition, or a rising curve; inactive = flat fitted curve, though single readings scatter; no compound was filed as active;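 further: 0% = full activity with enzyme and -100% = basal without enzyme; dose as in the result columns while the protocol names 77 µM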
# Rango complex inh = prevents formation of the Rango-importin beta complex | 340,000 tested, 0.031% active | Potency, µM (series often up to 92.2 µM), for the others: top-dose inhibition of complex formation | Rango CFP/YFP FRET sensor + importin beta, 45 min | Q14974; active = rising FRET ratio curve, often small or poorly fitted; inconclusive = mostly compound fluorescence or quenching in the first reads; inactive = flat curves in all reads;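 further: potency means the concentration at half of the fitted maximal effect; 0% = DMSO wells and 100% = buffer wells lacking importin beta; nearly all actives have a fitted effect of over 15% in size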
# Target sequence (Q14974 whole entry, looked up): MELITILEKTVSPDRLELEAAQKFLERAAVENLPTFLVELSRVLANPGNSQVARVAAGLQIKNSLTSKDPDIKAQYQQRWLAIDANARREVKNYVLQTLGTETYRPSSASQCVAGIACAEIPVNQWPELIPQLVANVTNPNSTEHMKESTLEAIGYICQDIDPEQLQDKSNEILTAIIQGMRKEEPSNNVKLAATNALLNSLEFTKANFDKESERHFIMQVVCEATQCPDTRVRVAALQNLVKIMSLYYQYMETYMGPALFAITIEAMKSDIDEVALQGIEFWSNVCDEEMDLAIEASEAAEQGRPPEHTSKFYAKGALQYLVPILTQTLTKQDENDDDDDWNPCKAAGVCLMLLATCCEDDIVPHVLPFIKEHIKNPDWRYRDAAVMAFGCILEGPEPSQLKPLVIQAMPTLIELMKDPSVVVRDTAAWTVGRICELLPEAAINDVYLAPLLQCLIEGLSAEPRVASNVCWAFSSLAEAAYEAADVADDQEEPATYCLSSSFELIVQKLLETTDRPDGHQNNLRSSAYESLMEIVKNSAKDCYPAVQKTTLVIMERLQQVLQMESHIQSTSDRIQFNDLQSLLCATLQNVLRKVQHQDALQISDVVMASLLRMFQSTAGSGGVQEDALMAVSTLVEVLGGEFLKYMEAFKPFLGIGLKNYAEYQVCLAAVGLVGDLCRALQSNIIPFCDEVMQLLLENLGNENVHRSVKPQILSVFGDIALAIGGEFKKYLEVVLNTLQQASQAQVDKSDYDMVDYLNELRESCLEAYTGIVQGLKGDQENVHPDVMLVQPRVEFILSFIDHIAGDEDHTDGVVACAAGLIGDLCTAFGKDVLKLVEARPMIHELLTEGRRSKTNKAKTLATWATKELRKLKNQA
#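 FRET biosensor Rango (snurportin 1 IBB between N-terminal EYFP and C-terminal Cerulean), 50 nM in PBS/1 mM DTT/0.02% Tween-20/0.1% BSA, preincubated 5 min RT with compound; 0.125 microM importin beta added, 45 min RT, CFP/YFP FRET ratio read.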
# miR-21 reporter = raises the signal of a miR-21 reporter; Potency, µM (top dose mostly 38.3 µM), without a hit: at the highest dose reporter change, positive = more light; 340,000 tested, under 10 active; HeLa miR-21 FLuc reporter, luciferase, 48 h; active = well fitted rising curve with a large enough effect; inconclusive = small, poorly fitted or top-dose-only effect; inactive = no such curve, though single readings can be large or run the other way;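 further: % of control where 0% means no effect; miR-21 action dims this reporter so a rising signal means less miR-21 action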
#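 HeLa cells stably expressing CMV-driven firefly luciferase with a downstream miR-21 binding sequence, endogenously expressing miR-21, were treated with titrations (up to about 40uM final) for 48 hours at 37 degree Celsius. Luciferase luminescence was read after lysis.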
# Starred values were filed as active, the others as inactive; ? = inconclusive; · = not tested or not shown; [ ] = remark or other dose. A portion of the library (hit frequency here may not be typical).
Rango release inh,GLA inh pH 4.5,Rango complex inh,miR-21 reporter,Compound
5%,-3,0.6%,-2%,O=C(COc1cccc(Cl)c1)Nc1cc(S(=O)(=O)N2CCOCC2)ccc1N1CCOCC1
8%,1,-1.3%,0%,Cc1cc(N2CCN(c3nnnn3-c3ccccc3)CC2)n2ncnc2n1
1%,7,-0.1%,-3%,COc1ccc(S(=O)(=O)N2CCC(C(=O)Nc3ccc4c(c3)OCCO4)CC2)cc1OC
-22%,-1[21.1 µM],2.4%,-10%,CCC(=O)Nc1ccc2nc(SCC(=O)N3CCOCC3)sc2c1
11%,-9,-2.0%,-16%,CNCC(O)CN(c1ccccc1)c1ccccc1 (stereo unspecified)
-23%,·,-6.3%,6%,Cc1cc(C)n(-c2ccc(NC(=O)C3CCCCN3C(=O)c3cc(C)oc3C)cc2)n1 (stereo unspecified)
23%,·,0.6%,1%,Cc1ccc2c(=O)cc(C(=O)NC3CCS(=O)(=O)C3)oc2c1 (stereo unspecified)
-7%,3,-5.1%,-7%,CCOC(=O)N1CCN(C(=O)C(=O)NNC(=O)COc2ccc(Cl)cc2)CC1
9%,1,4.8%,-4%,Cc1sc2nc(CSCC(=O)NC(C)(C)C)[nH]c(=O)c2c1C
-26%,-5,2.5%,-2%,COc1cc(-c2cc(C(=O)OCC(=O)Nc3ccc4c(c3)OCO4)c3ccccc3n2)cc(OC)c1OC
-16%,·,?,0%,NC(=O)[C@@H]1CCCN1Cc1c(C(=O)N2CCc3ccccc3C2)nc2ccc(Cl)cn12
8%,·,0.6%,·,Cc1ccsc1C(=O)N(C)C1CCS(=O)(=O)C1 (stereo unspecified)
16%,·,-0.7%,-10%,O=C(NCCOc1ccccc1)C1CCC(=O)N(CCc2ccc(Cl)cc2)C1 (stereo unspecified)
10%,-1,0.6%,4%,COc1cc([N+](=O)[O-])ccc1Nc1nc(C)cc(C)n1
7%,·,?,5%,Cn1c2ccccc2c2cc(/C=N/NC(=O)c3ccccc3F)ccc21
-1%,1,0.6%,-3%,COc1ccc(NC(=O)CSc2nnnn2C2CCCC2)cc1
-14%,·,?,-7%,CCOC(=O)c1c(NC(=O)c2ccc(S(=O)(=O)N3CCOCC3)cc2)sc2c1CCN(C(C)C)C2
28%,-8,1.0%,-6%,O=C(Nc1cccc(S(=O)(=O)N2CCOCC2)c1)c1cn(-c2ccccc2)nc1-c1ccc(F)cc1
-9%,2,2.9%,3%,Cc1c(NC(=O)C(=O)/C=C(\O)c2ccc(Cl)cc2)c(=O)n(-c2ccccc2)n1C
-12%,·,-0.9%,4%,Cc1sc2ncnc(N3CCN(Cc4ccccc4)CC3)c2c1-c1ccc(F)cc1
14%,-13,0.3%,2%,COc1cccc(OC)c1C(=O)NC(=S)Nc1cc(-c2nc3ccccc3[nH]2)ccc1Cl
?,-10,?,0%,O=C(O)Cn1cc(/C=C2/SC(=O)N(CC(=O)N3CCCCCC3)C2=O)c2ccccc21
15%,4,-2.8%,-14%,COc1ccc(NC(=O)c2ccc3c(c2)n(C)c(=O)n3C)cc1
-4%,0,1.4%,0%,CCN(CC(=O)Nc1cc(OC)ccc1OC)Cc1nc2ccccc2c(=O)[nH]1
14%,-4,4.6%,-6%,O=C(c1ccc(=O)[nH]n1)N1CCc2ccccc2C1
-2%,·,-0.8%,-2%,O=C(CNC(=O)Cc1ccccc1)NCc1cccc(C(F)(F)F)c1
24%,7,3.3%,-2%,CCNc1nc(NCC)n2c(SCC(=O)Nc3ccccc3[N+](=O)[O-])nnc2n1
-3%,·,-3.4%,-1%,C/C(=N\NC(=O)c1nnn(-c2nonc2N)c1-c1ccc2c(c1)OCO2)c1ccc(F)cc1
-1%,-19,-0.8%,0%,N/N=c1\sc2ccccc2n1-c1ccccc1
2%,·,-0.7%,·,CCOC(=O)[C@H]1[C@H]2COc3cc(OC)ccc3[C@@H]2N2C(=O)c3ccc(F)cc3NC(=O)[C@@]12C
-8%,4,2.7%,-3%,O=C(COC(=O)/C=C/c1ccccc1)NCc1ccc(Cl)cc1
-8%,-4,0.4%,-41%,O=C(Nc1nnc(-c2ccccc2Cl)o1)c1cccnc1
-4%,4,0.9%,5%,Nc1no[n+]([O-])c1-c1ccccc1
-9%,·,-1.2%,-11%,CC1SC(=S)N(c2ccc(N(C)C)cc2)C1=O (stereo unspecified)
6%,-10,1.7%,-12%,CCN(CC)CCNC(=O)c1ccc2c(c1)ncn2C1CCCCC1
-17%,-7,7.0%,4%,CC(=O)Nc1ccc(C=C(C(C)=O)C(C)=O)cc1
10%,·,-3.5%,0%,COc1ccc(N2CCN(C(=O)COc3ccc4c(C)c(C)c(=O)oc4c3C)CC2)cc1
22%,-3,-4.2%,12%,O=C(CSc1ncnc2c1cnn2Cc1ccccc1)Nc1ccc2c(c1)OCCO2
0%,·,5.1%,17%,Cn1c(CN2CCOCC2)nnc1SCC(=O)Nc1ccc([N+](=O)[O-])cc1O
?,-8,?,1%,O=C(Cc1ccc2c(c1)OCCO2)N1CCN(S(=O)(=O)c2ccccc2C(F)(F)F)CC1
-6%,0,3.2%,-2%,Cc1ccc2nsnc2c1S(=O)(=O)N1CCCC1C(=O)O (stereo unspecified)
56%,1,4.5%,-6%,O=C(N/N=C/c1coc2ccccc2c1=O)c1ccccc1
15%,·,-2.9%,5%,O=C(Cn1c(=O)oc2cc(S(=O)(=O)N3CCCC3)ccc21)N1CCN(c2ccccc2F)CC1
-4%,0,1.2%,-8%,O=C(O)c1cc([N+](=O)[O-])ccc1NCCO
5%,-7,-0.2%,-1%,C=CCn1c(N)c(C(=O)N2CCN(C)CC2)sc1=S
10%,3,1.1%,-2%,O=C(c1ccco1)N1CCN(C(=O)C2(S(=O)(=O)c3ccc(Cl)cc3)CC2)CC1
-12%,-3,-0.2%,-27%,COc1ccc(OC)c(NC(=O)c2cc3ccccc3o2)c1
-13%,9,1.1%,-5%,OCCC1CN(Cc2ccc3nsnc3c2)CCN1CCc1ccccc1 (stereo unspecified)
6%,·,-4.9%,-8%,O=C(CSc1nnnn1Cc1ccccc1)Nc1cccc(F)c1
-1%,·,0.7%,·,O=C(COC(=O)c1cccc(Cl)c1Cl)NCc1cccs1

# Other compounds follow:
Rango release inh,GLA inh pH 4.5,Rango complex inh,miR-21 reporter,Compound
-1%,-3,-3.4%,-4%,CCCCNC(=O)CSc1nc2ccccc2c(=O)n1CC1COc2ccccc2O1 (stereo unspecified)
8%,5,0.5%,-2%,Cc1sc2c(c1C)c(=O)n(-c1ccccc1)c1nncn21
6%,6,3.6%,3%,CCCC(=O)Nc1nc2nc(-c3ccccc3)cc(=O)n2[nH]1
-14%,·,-3.1%,·,Cc1cc(C(=O)COc2ccc(C#N)cc2)c(C)n1C1CC1
-11%,0,-10%,-3%,O=S(=O)(NC1CCCCC1)c1ccc(Cl)s1
1%,·,5.4%,0%,CC(C)c1ccc(C(=O)NN2CCOCC2)cc1
-21%,4,0.8%,12%,COC(=O)C1=C(C)NC(=O)NC1c1ccco1 (stereo unspecified)
-2%,·,0.1%,?,O=C(CCS(=O)(=O)c1ccccc1)Nc1nnc(C(F)(F)F)s1
-4%,·,0.6%,-1%,COc1ccc2c(c1)c(CC(=O)NCc1cc([N+](=O)[O-])ccc1O)c(C)n2C(=O)c1ccc(Cl)cc1
-8%,·,?,-23%,O=C(c1cccs1)N1CCN(c2ccc(Cl)cc2)CC1
1%,0,3.1%,-16%,O=C(Oc1ccc(O)cc1)C12CC3CC(CC(C3)C1)C2
3%,1,-3.6%,1%,CN(Cc1ccccc1)C(=O)CC(c1ccccc1)c1cc(Cl)ccc1O (stereo unspecified)
6%,-26,-2.3%,0%,COC(=O)C(NC(=O)CNS(=O)(=O)c1ccc(Br)cc1)c1ccccc1 (stereo unspecified)
?,·,-1.2%,·,COc1ccc(C(CNC(=O)c2cccn2C)N2CCOCC2)cc1 (stereo unspecified)
-9%,-3[21.1 µM],0.5%,15%,Cc1ccc(C)c2nc(Cl)c(C3NC(=O)c4ccccc4N3)cc12 (stereo unspecified)
11%,8,-1.4%,-23%,c1ccc(Cn2nnc3c(N4CCCC4)ncnc32)cc1
4%,-1,-0.4%,-1%,CCN(CC)C(=O)/C(=C\c1cccc([N+](=O)[O-])c1)NC(=O)c1ccco1
9%,6,1.0%,6%,CCOc1[nH]n(-c2ccccc2)c(=O)c1C=NCc1ccncc1
?,-2,3.5%,-4%,COc1ccc2nc(N3C(=O)CC(Cc4cc(C)cc(C)c4)C3=O)sc2c1 (stereo unspecified)
0%,·,2.4%,-5%,COc1ccc(CC(=O)N2CCN(c3ccccc3OC)CC2)cc1OC
-9%,-11,0.8%,-70%,O=C(COc1ccc(F)cc1Br)N1CCc2ccccc21
2%,·,-0.1%,0%,Cn1cc(S(=O)(=O)Nc2ccc(Cl)cc2Cl)c(=O)n(C)c1=O
0%,1,-1.2%,-6%,CN1C/C(=N\S(=O)(=O)c2ccccc2)N(C)C1=O
?,-7,?,11%,CC1=NN(c2ccc([N+](=O)[O-])cc2)C(c2ccccc2)C1 (stereo unspecified)
?,·,-2.0%,·,COc1ccc2c(c1)[C@H]1[C@H](CO2)[C@H](c2ccccc2)[C@]2(C)C(=O)Nc3cc(F)c(F)cc3C(=O)N12

# Pulled by compound from the entries so far:
Rango release inh,GLA inh pH 4.5,Rango complex inh,miR-21 reporter,Compound
-9%,-11,0.8%,-70%,O=C(COc1ccc(F)cc1Br)N1CCc2ccccc21
-2%,·,0.1%,?,O=C(CCS(=O)(=O)c1ccccc1)Nc1nnc(C(F)(F)F)s1
6%,-26,-2.3%,0%,COC(=O)C(NC(=O)CNS(=O)(=O)c1ccc(Br)cc1)c1ccccc1 (stereo unspecified)
?,·,-2.0%,·,COc1ccc2c(c1)[C@H]1[C@H](CO2)[C@H](c2ccccc2)[C@]2(C)C(=O)Nc3cc(F)c(F)cc3C(=O)N12
-1%,-3,-3.4%,-4%,CCCCNC(=O)CSc1nc2ccccc2c(=O)n1CC1COc2ccccc2O1 (stereo unspecified)

# Going on with the list.
Rango release inh,GLA inh pH 4.5,Rango complex inh,miR-21 reporter,Compound
-5%,1,-3.0%,-4%,CN(C)c1ccc(P(=O)(CC(=O)N/N=C/c2ccc(C#N)cc2)OCCCl)cc1 (stereo unspecified)
-16%,·,-3.7%,·,C=CCn1c(SCC(=O)c2ccc(O)c(O)c2)nnc1-c1ccc(C)cc1
2%,-2,-2.0%,-2%,COC(=O)Cc1c(O)ccn(Cc2ccc(F)cc2)c1=O
-3%,10,-1.2%,-3%,COc1ccc(Cl)cc1C(=O)N1CCN=C1SC
-5%,·,2.4%,·,C=C(CN(C)C)C(=O)c1ccc(OC2OC(COC(C)=O)C(OC(C)=O)C(OC(C)=O)C2OC(C)=O)cc1 (stereo unspecified)
7%,·,-5.0%,·,COc1ccc(C2=NOC(Cn3nc(C(=O)NCC4CC4)cc3-c3ccccc3)C2)cc1 (stereo unspecified)
1%,3,-1.9%,-7%,Cn1cccc1Cc1nnc(SCC(N)=O)n1CCc1ccccc1
1%,-2,0.8%,-4%,Cc1c(NC(=S)NC(=O)c2cc3ccccc3o2)c(=O)n(-c2ccccc2)n1C
-11%,-2,?,0%,C#CCOCCOCCOCCNc1nc(N2CCOCC2)nc(N2CCN(C(=O)[C@H](Cc3ccc(O)cc3)n3cc([C@@H](N)C(C)CC)nn3)CC2)n1 (stereo partly specified)
15%,5,-1.0%,-7%,Cc1ccc2[nH]c(=O)c(CN(C(=O)c3cccs3)c3ccccc3)cc2c1
-7%,·,5.7%,·,COc1cccc(CC(=O)NNC(=O)CN(C)S(=O)(=O)c2ccc(C)cc2)c1
1%,3,2.1%,?,O=[N+]([O-])c1ccc(Sc2cccc3cccnc23)c([N+](=O)[O-])c1
0%,·,0.1%,-19%,O=C(CNCc1ccccc1)Nc1ccc(Cl)cc1
-7%,·,6.0%,-2%,CCc1nnc(NC(=O)CN2CCN(Cc3cccc(OC)c3)CC2)s1
-1%,1,0.4%,14%,COc1ccc(S(=O)(=O)N2CCCC2C(=O)n2nc(C)cc2C)cc1 (stereo unspecified)
-10%,·,0.4%,·,CC1CCCCC12NC(=O)N(CC(=O)N1CCc3ccccc31)C2=O (stereo unspecified)
